# KCNQ2 enhance: potentiators of rat KCNQ2 potassium channel | B-score at 10 µM | Potassium voltage-gated channel subfamily KQT member 2 (Rattus norvegicus), O88943 | AID 2239, 2010 | CHO-K1 KCNQ2, FluxOR thallium flux fluorescence; stronger effect = higher value | 310,000 tested, 0.54% active;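 active means fluorescence ratio B-score at least 3 SD of library B-scores, with initial fluorescence B-score within 3 SD, cut at about 5.3 in these data; same plate scores as AID 2156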;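 further: B-score of peak minus minimum over baseline fluorescence ratio after K+ and Tl+ stimulus; positive B-score means potentiation of KCNQ2 with more thallium influx and brighter signal; only the inactives scoring about 0 or higher are listed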
# Target sequence (O88943 whole entry, looked up): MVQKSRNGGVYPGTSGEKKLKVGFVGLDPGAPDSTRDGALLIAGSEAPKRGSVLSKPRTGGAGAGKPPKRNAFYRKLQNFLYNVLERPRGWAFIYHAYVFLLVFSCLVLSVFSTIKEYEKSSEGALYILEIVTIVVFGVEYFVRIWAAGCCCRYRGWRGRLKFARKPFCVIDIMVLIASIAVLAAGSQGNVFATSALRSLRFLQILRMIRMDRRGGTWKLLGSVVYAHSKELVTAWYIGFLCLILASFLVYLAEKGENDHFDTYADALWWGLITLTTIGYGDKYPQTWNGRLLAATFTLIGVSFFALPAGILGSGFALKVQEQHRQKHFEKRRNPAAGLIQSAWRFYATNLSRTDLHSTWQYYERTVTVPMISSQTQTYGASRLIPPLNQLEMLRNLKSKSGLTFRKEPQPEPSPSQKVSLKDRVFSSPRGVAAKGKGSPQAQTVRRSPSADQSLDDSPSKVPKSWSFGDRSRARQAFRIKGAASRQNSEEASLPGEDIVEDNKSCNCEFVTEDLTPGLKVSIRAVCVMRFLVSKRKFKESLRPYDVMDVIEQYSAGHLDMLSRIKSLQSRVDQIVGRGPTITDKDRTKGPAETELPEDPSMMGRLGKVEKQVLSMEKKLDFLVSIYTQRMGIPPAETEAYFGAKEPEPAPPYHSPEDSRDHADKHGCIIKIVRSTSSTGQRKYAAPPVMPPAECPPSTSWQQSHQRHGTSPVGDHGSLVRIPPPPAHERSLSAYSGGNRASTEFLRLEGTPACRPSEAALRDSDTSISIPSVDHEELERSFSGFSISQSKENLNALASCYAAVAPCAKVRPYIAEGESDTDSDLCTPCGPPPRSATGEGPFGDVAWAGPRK
# KCNQ2 enhance baseline: further read-out of KCNQ2 enhance, marked with its call; B-score; compound at 10 µM; measured here: initial fluorescence intensity artifact check;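 brightness before thallium and not channel activity; 0 = typical well and far values either way flag optical interference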
# The depositor's hits bear a star. The list is partial; rates above refer to the full screens.
SMILES,KCNQ2 enhance,KCNQ2 enhance baseline
CCCCN1C(=O)CCC(C(=O)O)C1c1ccccc1 (centres undefined),1.4,0.14
Cc1nnc(C)n1/N=C/c1cc2ccccc2nc1Cl,1.3,-0.54
O=C(CCc1ccccc1)NCC(=O)N/N=C/c1ccc2c(c1)OCO2,0.58,-0.85
Cc1ccc(C(=O)Nc2nc(C(C)(C)C)cs2)s1,6.6*,0.45*
O=C(Nc1cccnc1Cl)c1cc(-c2ccccc2O)on1,0.25,0.07
Brc1ccc(-c2csc(/N=C/N3CCOCC3)n2)cc1,1.2,0.36
CCOCCCNC(=S)N1CCCN(c2nc3cc(C)cc(C)c3cc2C#N)CC1,0.49,-0.52
CC1(c2nnc(-c3cccc(Cl)c3)o2)CC(c2ccc(Br)cc2)=NO1 (centres undefined),0.01,-1.3
Cc1cc(-n2c(C)cc(C(=O)CN3C(=O)NC4(CCCCC4)C3=O)c2C)no1,0.12,-0.62
C=CCNC(=S)NNC(=O)C(CCC(C)C)CC(C)(C)O (centres undefined),0.65,1.8
Cc1ccc(CNc2oc(C)nc2C#N)cc1,0.86,-0.24
Cc1cccnc1NC(=O)c1ccc(OCc2c(C)noc2C)cc1,1.9,-0.84
CC(C)Cc1nnc(NC(=O)C2CSC3(C)CCC(=O)N23)s1 (centres undefined),0.32,-0.55
COC(=O)[C@@H](NC(=O)Nc1ccc(S(N)(=O)=O)cc1)C(C)C,0.12,2.7
CCOC(=O)c1sc2ncn(/N=C/c3cccnc3)c(=O)c2c1C,0.14,0.27

# The last six entries of the part before are carried over, then new ones follow.
SMILES,KCNQ2 enhance,KCNQ2 enhance baseline
C=CCNC(=S)NNC(=O)C(CCC(C)C)CC(C)(C)O (centres undefined),0.65,1.8
Cc1ccc(CNc2oc(C)nc2C#N)cc1,0.86,-0.24
Cc1cccnc1NC(=O)c1ccc(OCc2c(C)noc2C)cc1,1.9,-0.84
CC(C)Cc1nnc(NC(=O)C2CSC3(C)CCC(=O)N23)s1 (centres undefined),0.32,-0.55
COC(=O)[C@@H](NC(=O)Nc1ccc(S(N)(=O)=O)cc1)C(C)C,0.12,2.7
CCOC(=O)c1sc2ncn(/N=C/c3cccnc3)c(=O)c2c1C,0.14,0.27
Cc1cc(N2CCN(c3ccccc3)CC2)nc(NCc2ccccc2)n1,0.6,-0.02
COc1ccc(NC(=O)CN(C)C(=O)CSCc2ccc(C)cc2)cc1,0.69,-0.16
COCCCN1C(=O)C(=O)/C(=C(/O)c2ccc(C)cc2)C1/C=C/c1ccccc1 (centres undefined),0.03,-0.05
OCCC1CCCCN1CC(O)COCc1ccc(Cl)cc1 (centres undefined),1.8,-2.6
CCn1c2c(c3cc(Cl)ccc31)CCCC2=O,0.19,0.05
CC1C(=O)C(C)(C)C(=O)OC1c1ccc([N+](=O)[O-])cc1 (centres undefined),0.73,0.55
COc1ccc(N(C(=O)c2snc(C(N)=O)c2N)C(C(=O)NCc2ccc(F)cc2)c2ccc(O)cc2)cc1 (centres undefined),0.71,0.07
CC1CCN(c2ccc3nnc(CCC(=O)NCC(C)c4ccccc4)n3n2)CC1 (centres undefined),0.04,0.04
CCOC(=O)/C=C/C(=O)OCC(=O)Nc1ccc(C)cc1,2.5,-0.78
O=C(NCCCN1CCCC1=O)c1ccc(NS(=O)(=O)c2cccc([N+](=O)[O-])c2)cc1,0.71,0.44
C=CCn1c(=S)[nH]c2cc(-c3ccccc3)sc2c1=O,2.8,-0.36
O=C(CN1CCN(Cc2ccccc2)CC1)N/N=C/c1c[nH]c2ccccc12,0.55,1
Cc1ccc(-c2noc(CCC(=O)NCCCN3CCN(c4ccc(F)cc4)CC3)n2)cc1,0.46,-0.3
COc1ccc2c(c1)C1NC(=S)NC(C)(O2)C1C(=O)Nc1ccc(C)cc1C (centres undefined),0.95,-1.5
OC(C#CCN1CCCCC1)c1ccccc1 (centres undefined),0.4,-0.42

# One compound at a time (already shown):
# Record of `COCCCN1C(=O)C(=O)/C(=C(/O)c2ccc(C)cc2)C1/C=C/c1ccccc1` (centres undefined) = KCNQ2 enhance = 0.03; KCNQ2 enhance baseline = -0.05
# Record of `Cc1cc(N2CCN(c3ccccc3)CC2)nc(NCc2ccccc2)n1` = KCNQ2 enhance = 0.6; KCNQ2 enhance baseline = -0.02

# New compounds follow:
SMILES,KCNQ2 enhance,KCNQ2 enhance baseline
COc1ccccc1C(=O)OCc1nc(N)nc(Nc2ccccc2C)n1,2.1,0.31
CCN1CCN(CCCNC(=O)CNC(=O)c2nn(-c3ccc(OC)cc3)c(=O)c3ccccc23)CC1,0.97,0.11
CC(=O)N1N=C2c3ccccc3CCC2C1c1cccs1 (centres undefined),0.09,-0.49
CN(C)c1cc2c(c(N(C)C)c1)C(=O)c1ccccc1C2=O,0.42,0.29
CN(C(=O)c1cccs1)C1(C)CCS(=O)(=O)C1 (centres undefined),0.53,-0.73
CSCC[C@H](NC(=O)COc1cc2c(c3oc(=O)c(C)c(C)c13)CCC(C)(C)O2)C(=O)O,1.3,0.33
COCCCNC(=S)NNC(=O)c1ccoc1C,0.4,-0.01
CC(=O)N1c2ccc(S(=O)(=O)N3CCC(C(=O)N4CCN(c5cc(Cl)ccc5C)CC4)CC3)cc2CC1C (centres undefined),0.41,-0.78
O=C(COc1ccccc1N1C(=O)c2ccccc2C1=O)c1ccc(Cl)cc1,0.48,1
O=C(N/N=C/c1ccc(Cl)cc1Cl)c1ccc2nc[nH]c2c1,0.86,0.05
CCOc1ncccc1C(=O)OCC(=O)Nc1ccc(C)c(S(=O)(=O)N2CCOCC2)c1,0.94,-0.28
Cc1ccc(Nc2ncccc2C(N)=O)cc1,1.1,-0.41
CC(OC(=O)CCC(=O)c1cccs1)C(=O)Nc1ccc(Cl)cn1 (centres undefined),0.53,0.4
Cc1nonc1OCC(C)(COc1nonc1C)NC(=O)c1ccccc1,0.02,-0.24
COCCN(C(=O)COC(=O)CCc1ccccc1OC)c1c(N)n(Cc2ccccc2)c(=O)[nH]c1=O,0.26,-0.71
O=C(COC(=O)CNC(=O)c1ccc(Cl)cc1)Nc1ncc(C(F)(F)F)cc1Cl,0.06,-0.26
CCn1nc(C(C)C(=O)O)c2ccccc2c1=O (centres undefined),2.4,-1.1
COc1cc(CNCc2ccccn2)ccc1OCC(N)=O,1.8,0.22
CCc1ccc(CN2C(=O)c3ccccc3C2C(=O)NCC2CCCO2)cc1 (centres undefined),0.28,0.01
O=S(=O)(Nc1ccc(-c2ccc3nncn3n2)cc1)c1cccc(F)c1,1,-0.57
O=C(c1ccc(F)cc1)N1CCN(C2CC3CCC2C3)CC1 (centres undefined),0.62,0.59
CCc1ccc(S(=O)(=O)NCc2cn3c(C)csc3n2)s1,1.4,0.19
CCCCn1c(N)c(N(CCOC)C(=O)c2cccc(OCc3ccccc3)c2)c(=O)[nH]c1=O,1.6,0.56
CCSc1nnc(NC(=O)CSc2ncccn2)s1,0.39,-0.03
CCN(CC)CCNC(=O)c1ccc(NC(=O)CC(NC(=O)c2ccccc2Cl)c2ccccc2)cc1 (centres undefined),1.6,0.35
CCCCS(=O)(=O)Nc1ccc(C)cn1,1.2,0.33
COC(=O)C1(C)CN(S(=O)(=O)c2ccc(C)cc2)c2cc(OC)ccc2C1=O (centres undefined),0.05,-0.64
CCc1ccc(N(CC(=O)NC2CCCC2)C(=O)CCC(=O)Nc2cc(C)on2)cc1,0.04,0.31
Cc1cc(Nc2ccccc2)n(-c2ccc(C(=O)O)cc2)n1,1.3,-0.81
COc1ccccc1NS(=O)(=O)c1cc(NC(=O)CN2C(=O)NC3(CCCC3)C2=O)ccc1C,2.3,-0.58
COc1ccc(SCCc2ccncc2)cc1,1.2,-0.01
CCCOc1ccc2cc(-c3ccccn3)c(=O)oc2c1,0.56,0.85
Cc1ccc(NC(=O)NCC2CC2(Cl)Cl)cc1 (centres undefined),10*,0.01*
c1ccc(NCc2ccncc2)cc1,0.54,0.08
CC(C)C(=O)N1CCN(c2ccccc2NC(=S)NC(=O)c2ccco2)CC1,0.68,-0.78
COc1ccc2nc3oc(C(=O)NCc4cccs4)cc3cc2c1,0.71,-0.34
COc1cccc(NC(=O)C2COc3ccccc3O2)c1 (centres undefined),0.81,-2.2
CCOc1ccc(C2C3=C(CC(C)(C)CC3=O)N(CC(=O)O)C3=C2C(=O)CC(C)(C)C3)cc1OCC,0.58,0.39
Cc1ccc(Nc2nc(N)nc(CSc3ncccn3)n2)cc1,1.6,-0.94
CCn1cc(CN2CCC(n3nccc3NC(=O)CCCc3ccccc3)CC2)c(C)n1,1.3,0.59
CCn1c(=O)c2sccc2n(CC(=O)NC2CCCCC2)c1=O,1,0.47
COc1ccccc1CNC(=O)CN(C)S(=O)(=O)c1ccc2c(c1)c(=O)n(C)c(=O)n2C,0.31,-0.56
NS(=O)(=O)c1ccc2nc(NC(=O)c3ccc4ncsc4c3)sc2c1,0.06,-0.6
O=C(O)c1ccc(NS(=O)(=O)c2ccc(Cl)c(C(=O)Nc3ccccc3[N+](=O)[O-])c2)cc1,1.6,0.05
COc1cc(OC)cc(-c2nnc(SCC(=O)N3c4ccccc4Sc4ccccc43)o2)c1,0.2,-0.32
COc1ccccc1/C=C/C=N/NC(=O)Cc1cccs1,0.96,0.6
O=C(c1ccncc1)N1CCN(S(=O)(=O)c2cccc(F)c2)CC1,0.85,-0.55
CC(C)OC(=O)C(CC(=O)O)N1CCOCC1 (centres undefined),1.5,1.2
Cc1ccc(C(=O)NCCn2cc(SCC(=O)Nc3nnc(C)s3)c3ccccc32)cc1,0.91,0.07
CC1CCCN(c2cc3c(cc2[N+](=O)[O-])C(=O)N(c2ccccc2)C3=O)C1 (centres undefined),0.34,-0.74
COCCn1cnnc1SCC(=O)Nc1sccc1C(N)=O,0.28,-0.01
CC(=O)c1cccc(NC(=O)CC(C)n2ccnc2)c1 (centres undefined),0.48,0.62
CCOc1cc(S(=O)(=O)NCc2ccccc2)ccc1Br,0.59,-0.03
CCOCc1nc(N)[nH]c(=O)c1Cc1ccc(OC(C)C)cc1,0.29,-0.07
COc1ccc(N2CCN(C(=O)c3ccc(CS(=O)c4cccc(C)c4)o3)CC2)cc1 (centres undefined),0.12,2
CCCC(=O)NCCCCNC(=O)CCC,0.36,0.39
O=C(O)c1ccc(Nc2nc(-c3ccccc3)cs2)cc1,1.1,-0.3
CC(C)OC(=O)CC1=NC(=O)CS1,0.29,1.5
CCCc1c(NC(=O)Nc2ccc(F)cc2)cnn1-c1ccccc1,0.82,-0.37
Cc1cc(NC(=O)c2cncc(Br)c2)no1,1.3,0.43

# Structures shown so far with a cyano group:
SMILES,KCNQ2 enhance,KCNQ2 enhance baseline
CCOCCCNC(=S)N1CCCN(c2nc3cc(C)cc(C)c3cc2C#N)CC1,0.49,-0.52
Cc1ccc(CNc2oc(C)nc2C#N)cc1,0.86,-0.24

# The listing continues:
SMILES,KCNQ2 enhance,KCNQ2 enhance baseline
Cc1ccc(-n2nc3c(n2)/C(=N/O)CC/C3=N\O)cc1,1.7,0.46
Cc1ccc(C)c(NC(=S)NNC(=O)c2csc(C)c2C)c1,0.82,0
COCCNC(=S)N1CCc2cc(OC)c(OC)cc2C1c1cccs1 (centres undefined),0.42,-1.8
Cc1nn(C)cc1NC(=O)c1nn(C)cc1[N+](=O)[O-],3,-2.5
COc1ccc(-c2csc3nc[nH]c(=O)c23)cc1OC,1.1,-2.7
CCc1ccc(NC(=O)CS(=O)CC(=O)NCC2OCCc3ccccc32)cc1 (centres undefined),0.88,0.1
O=C(COc1ccc(-n2ccnc2)cc1)Nc1cccc(F)c1,1.6,-0.4
Cc1ccc(C(=O)N/N=c2\oc3ccccc3cc2C(N)=O)cc1,0.03,0.15
Cc1ccc(C(=O)NNC(=O)c2cccs2)cc1,0.13,-0.91
CC(C)NC(=O)NC(=O)CN1C(=O)NC2(CCc3ccccc3C2)C1=O (centres undefined),3,1.5
COC(=O)c1ccc(Cn2cnc3c(sc4nc(N5CCOCC5)c5c(c43)CCCC5)c2=O)o1,0.08,0.46
CC(C)CNC(=O)COC(=O)C1c2ccccc2Oc2ccccc21,0.37,0.69
CN(Cc1nc(-c2ccc3c(c2)OCO3)no1)CC1(N2CCOCC2)CCCCC1,0.02,-1.5
CCC(=O)N(C)/C=C1\Sc2ccccc2C1=O,0.03,0.2
Cc1ccc(S(=O)(=O)N(C)Cc2nc(-c3ccccn3)no2)cc1,1.5,-0.36
O=C(CCCN1C(=O)/C(=C\c2ccccc2)SC1=S)Nc1ccc(C(=O)O)cc1,1.1,-0.99
Cc1onc(C(=O)Nc2cccc(C(F)(F)F)c2)c1[N+](=O)[O-],2.9,-0.16
O=C(Nc1ccccc1)c1cccc(N2C(=O)C3C4C=CC(C5CC45)C3C2=O)c1 (centres undefined),0.9,-0.36
Cc1ccccc1Cn1c2ccccc2c2cnn(CC(=O)NCCCN3CCN(C)CC3)c(=O)c21,1.4,-1.2
Cc1ccccc1NC(c1cccc(Cl)c1)c1nnnn1C1CCCCC1 (centres undefined),0.29,1.9
O=C(NCc1nc(-c2ccc(C(F)(F)F)cc2)no1)c1cccs1,0.41,1.3
O=C(NNc1cccc(Cl)c1)c1cccnc1Cl,2.1,-0.78
Cc1cc(NS(=O)(=O)c2ccc(NC(=O)c3ccc(Cl)cc3[N+](=O)[O-])cc2)no1,1.2,1.4
Cc1occc1C(=O)Nc1cccnc1,1.7,-1.5
O=C(N/N=C/c1ccccc1)c1[nH]ncc1Br,2.8,-1.6
COc1ccc(/C=C(\NC(=O)c2ccccc2)C(=O)N2CCCCC2)cc1OC,0.49,-0.65

# High-throughput results deposited in PubChem BioAssay by Johns Hopkins Ion Channel Center.
